Bioassay records as filed in PubChem BioAssay.
Vaccinia mCherry: inhibitors of vaccinia virus infection (mCherry reporter signal). Vaccinia virus mCherry reporter infection, fluorescence; about a quarter of the inactives have no number. Potency, µM (highest dose often 36.5 µM), for inactives: at the top dose activity change, negative = inhibition, actives largely listed as inhibitors. actives 0.63% (n = 310,000); active = well fitted inhibition curve with a large enough effect; inconclusive = small, poorly fitted or top-dose-only effect; inactive = no such curve, though single readings can be large or run the other way; tested in A549 cells; further: nearly all actives have a fitted effect of over 35% in size; inactives centre near -10
VACV Venus inh: vaccinia inhibition (Venus reporter); Vaccinia virus Venus reporter expression, fluorescence; Potency, µM (highest dose often 36.5 µM), for inactives: at the top dose activity change, negative = inhibition, actives largely listed as inhibitors; actives 0.46% (n = 330,000); active means well fitted inhibition curve with a large enough effect; inconclusive means small, poorly fitted or top-dose-only effect; inactive means no such curve, though single readings can be large or run the other way; tested in A549 cells; further: nearly all actives have a fitted effect of over 30% in size; inactives centre near -10
Starred values were filed as active, the others as inactive; i = inactive; ? = inconclusive; · = no result given; & = joins results of further samples; [ ] = remark or other dose. On the % scale 0 is the no-effect control and ±100 the full control effect; potency means the concentration at half of the fitted maximal effect. Outcome played no part in choosing rows, and some 0.82% of all compounds hit somewhere here.

SMILES	Vaccinia mCherry	VACV Venus inh
Cn1nc(C(C)(C)C)cc1C(=O)N1CCCC(c2cc(C(=O)NCc3ccccc3)no2)C1 (stereo not drawn)	-24%	-1%
Cc1ccc(C(=O)N/C(=C\c2cccc([N+](=O)[O-])c2)C(=O)NCc2ccncc2)cc1	?	-18%
Cc1ccc(S(=O)(=O)n2nc(C)cc2N)cc1	11%	0%
CCN1CCN(C(=O)c2cnn(-c3cccc(Cl)c3)c2C2CCN(C(=O)OC(C)(C)C)CC2)CC1	-18%	-5%
Cc1cc([N+](=O)[O-])nn1CCCC(=O)Nc1cccc(Cl)c1Cl	-22%	21%
O=C(O)COc1ccccc1/C=N/NC(=O)c1cccc(S(=O)(=O)N2CCOCC2)c1	5%	3%
CCNC(=O)C1(C)CCN(C(=O)c2cccc3ccccc23)C1 (stereo not drawn)	11%	-1%
O=C(NNC(=O)c1cccs1)c1ccc(S(=O)(=O)N2CCCCC2)cc1	i	-11%
O=C(/C=C/c1ccc(Cl)cc1Cl)c1cccnc1	·	-14%
CC1(C(=O)NCc2ccc(C(F)(F)F)cc2)CCN1Cc1cc2ccccc2o1 (stereo not drawn)	12%	2%
Cc1cnc(NC(=O)c2ccccn2)s1	-20%	-13%
CCc1cc2c3c(c1)C1(C(=O)N3C(C)(C)C=C2C)C(C#N)=C(N)Oc2[nH]c(=O)[nH]c(=O)c21 (stereo not drawn)	-12%	-5%
O=C(c1ccccc1Cl)n1nc(-c2ccco2)nc1NCc1cccs1	-19%	-14%
O=S(=O)(NCc1nc(N2CCCC2)c2cc(Cl)ccc2n1)c1ccccc1OC(F)(F)F	-14%	-15%
Cc1ccc(NC(=O)c2cc(=O)[nH]c3ccc(S(=O)(=O)N4CCOCC4)cc23)nc1	-19%	-9%

Shown with two lines to a compound: 7 of the compounds above.
Values run as follows: Vaccinia mCherry	VACV Venus inh
> O=C(NNC(=O)c1cccs1)c1ccc(S(=O)(=O)N2CCCCC2)cc1
    i	-11%
> O=C(/C=C/c1ccc(Cl)cc1Cl)c1cccnc1
    ·	-14%
> CC1(C(=O)NCc2ccc(C(F)(F)F)cc2)CCN1Cc1cc2ccccc2o1 (stereo not drawn)
    12%	2%
> Cc1cnc(NC(=O)c2ccccn2)s1
    -20%	-13%
> CCc1cc2c3c(c1)C1(C(=O)N3C(C)(C)C=C2C)C(C#N)=C(N)Oc2[nH]c(=O)[nH]c(=O)c21 (stereo not drawn)
    -12%	-5%
> O=C(c1ccccc1Cl)n1nc(-c2ccco2)nc1NCc1cccs1
    -19%	-14%
> O=S(=O)(NCc1nc(N2CCCC2)c2cc(Cl)ccc2n1)c1ccccc1OC(F)(F)F
    -14%	-15%

Next section
SMILES	Vaccinia mCherry	VACV Venus inh
O=C(CN1CCCN(Cc2ccc(F)cc2)S1(=O)=O)NCc1ccccc1Cl	-13%	-8%
O=C(CCC1CCCCC1)NCCS(=O)(=O)N1CCN(c2ccccc2)CC1	-1%	?
CCOC(=O)c1c(C)[nH]c(CCC(=O)NCc2ccccc2Cl)c1C	-10%	-15%
CC1CCCN(CCCOc2ccc(Br)cc2Cl)C1 (stereo not drawn)	-25%	-21%
Cc1nnc(C)n1N	i	-4%
CCN(c1cccc(C)c1)S(=O)(=O)c1ccc2c(c1)NC(=O)CCS2	0%&-8%	-16%&-4%
O=C(N1CCCCCC1)n1c(Cc2ccccc2)nc2ccccc21	-18%	-18%
Cn1cnnc1SC1c2cccc3cccc(c23)C1NS(=O)(=O)c1ccc(Cl)cc1 (stereo not drawn)	-6%	-14%
CNC(=O)c1ccc(CN(C)CC(=O)Nc2ccccc2C(=O)NC2CC2)cc1	-10%	-5%
Cc1cccc(C)c1-n1nnnc1C(c1ccnc2ccccc12)N(CCC#N)Cc1ccccc1 (stereo not drawn)	-5%	-3%
O=C(NN=C1CCCCCC1)c1ccncc1	?	-2%
COc1cccc(NC(=O)COc2coc(CN3CCN(c4ccccc4)CC3)cc2=O)c1	-9%	-17%
CCOCCCNc1nc2c([nH]1)c(=O)n(C)c(=O)n2C	·	-14%
O=C(Cn1cc(/C=N/O)c2ccccc21)N1CCOCC1	-4%	8%
Cc1ccc(NC(=O)CSc2nnc(C3CC3)n2CC2CCCO2)c(C)c1 (stereo not drawn)	-14%	2%
Cc1ccccc1NC(=O)Cn1c(=O)n(CCCCCC(=O)NCc2ccccc2Cl)c(=O)c2sccc21	-18%	-16%
CCCN1CCN(C(=O)C2CCCN(c3ncnc4c3nc3n4CCCCC3)C2)CC1 (stereo not drawn)	-7%	-4%
O=C(Cn1nnc(-c2ccc(F)cc2)n1)OCC(=O)c1ccccc1	-1%	12%
CCCc1nc2ccc(C)cn2c1Cc1ccccc1	2%	-6%
COc1cccc(CNC(=O)CCn2c(=O)c3cccn3c3cccnc32)c1OC	-6%	-6%
CCOC(=O)c1c(-c2ccccc2)csc1NC(=O)CSc1nncs1	?	?
CCSc1nc2c(c(=O)[nH]1)C(c1cccnc1)C(C(=O)OC)=C(C)N2 (stereo not drawn)	·	3%
Cn1c(=O)[nH]c(NCCc2ccc(O)cc2)c([N+](=O)[O-])c1=O	-2%	-8%
Clc1ccccc1OCCNc1nc(NCC2CC2)nc2ccsc12	10%	-17%
CC(C)(C)OC(=O)[C@H](NC(=O)OCc1ccccc1)c1ccccc1	i	-17%
CCCNC(=O)CS(=O)Cc1nc(-c2ccccc2C)oc1C (stereo not drawn)	i	-18%
CC(C)CCN1C(=O)c2ccc(C(=O)Nc3cc(C(=O)O)cc(C(=O)O)c3)cc2C1=O	i	-5%
CS(=O)(=O)N1CCc2cc(C(=O)Nc3ccc(O)cc3)ccc21	2%	4%
CN(C)Cc1c(C(=O)N/N=C/c2cccc3ccccc23)nnn1-c1nonc1N	i	-11%
Cc1ccc(NC(=O)c2sc(N)nc2-c2ccccc2)cc1C	-9%	-20%
COc1ccc(C(=O)Nc2ccccc2C(=O)N2CCN(c3ccccc3)CC2)cc1	i	-19%
O=C(Cn1c(=O)ccn(Cc2ccccc2)c1=O)Nc1cccc(S(=O)(=O)N2CCOCC2)c1	-19%	-12%
CCOC(=O)C1CCN(S(=O)(=O)c2ccc(OCC)cc2)CC1	·	-13%
Clc1cc(Cl)c(-c2cc(Cl)c(Cl)cc2Cl)cc1Cl	i	-9%
CC1(C)CC(=O)C=C(c2cccc(O)c2)C1	i	-14%
CC1(C(=O)NS(=O)(=O)c2ccc(Cl)cc2)CCN1C(=O)Cc1cccs1 (stereo not drawn)	-14%	-25%
COCCNC(=O)C1CC(=O)N(c2ccc(F)c(Cl)c2)C1 (stereo not drawn)	22%	12%
CCCCCCc1cc2cc(C(=O)Nc3ccccc3OC)c(=O)oc2cc1O	-16%	-7%
C/C(=N/NC(=O)c1ccco1)c1ccc(NC(=O)c2ccc(F)cc2)cc1	-23%	-7%
Cc1c(NS(=O)(=O)c2cc(C(=O)NCCN(C)C)ccc2Cl)c(=O)n(-c2ccccc2)n1C	i	-18%
Cc1ccc(NC(=O)c2cc(N3C(=O)C=CC3=O)ccc2Cl)cc1C	-9%	0%
CCOC(=O)CN1C(=O)N[C@@H](CCc2ccccc2)C(C(C)=O)=C1C	i	-4%
CC(C)C(OC(=O)c1cccs1)C(=O)NC1CCCCC1 (stereo not drawn)	-4%	-6%
Clc1ccc2nc(CSc3ncn[nH]3)cn2c1	i	-2%
O=C(c1cc(-c2ccccc2)nc2ccccc12)N1N=C(C(F)F)CC1(O)C(F)F (stereo not drawn)	i	-20%
CCCCn1c(O)c(/C=N/NC(=O)c2ccncc2)c(=O)[nH]c1=S	-3%	16%
CN(C)/C=C1\Oc2ccc3ccccc3c2C1=O	-12%	1%
COC(=O)C1(C(=O)OC)Cc2ccccc2N(S(=O)(=O)c2ccc(C)cc2)C1CC(C)=O (stereo not drawn)	-7%	-9%
CC(=O)N1CCC(=NNc2ccc(S(N)(=O)=O)cc2[N+](=O)[O-])CC1	-21%	-4%
COc1ccc(/C=C/C(=O)NNC(=O)c2cc(C)oc2C)cc1	i	-20%
Cc1ccccc1NC(=O)NC1(C(=O)N2CCCC2)CCCCC1	-11%	-4%
Fc1ccc(-n2ncc3c(N4CCN(c5ccccc5F)CC4)ncnc32)cc1	-1%	-12%
CN1C(=O)[C@@H]2[C@H](C1=O)[C@@H]1C(=O)Nc3ccccc3C(=O)N1[C@@H]2c1ccc(Br)cc1	-15%	3%
CN1CC(=O)N(CC(=O)NCc2ccc(F)cc2)c2ccccc2C1=O	i	-8%
CCN(CCNC(=O)C1CC(=O)N(CCc2ccccc2)C1)c1ccccc1 (stereo not drawn)	-18%	-19%
COc1cccc(NC(=O)c2ccco2)c1	i	-10%
CC(=O)c1c(C)[nH]c(C(=O)N(C)C(c2ccccc2)c2ccccc2)c1C	-10%	-10%
Cc1ccc(CNC(=O)Cn2nc(C)n3cccc3c2=O)cc1	-16%	-6%
COc1cccc(C(=O)Nc2ccccc2C(=O)N2CCCC2)c1	-24%	-18%
COCCNC(=O)C(OC(=O)c1cccs1)c1ccc(F)cc1 (stereo not drawn)	-2%	-4%

A run of entries from the list above, for reference:
SMILES	Vaccinia mCherry	VACV Venus inh
CN1C(=O)[C@@H]2[C@H](C1=O)[C@@H]1C(=O)Nc3ccccc3C(=O)N1[C@@H]2c1ccc(Br)cc1	-15%	3%
CN1CC(=O)N(CC(=O)NCc2ccc(F)cc2)c2ccccc2C1=O	i	-8%
CCN(CCNC(=O)C1CC(=O)N(CCc2ccccc2)C1)c1ccccc1 (stereo not drawn)	-18%	-19%

Following part:
SMILES	Vaccinia mCherry	VACV Venus inh
COc1ccccc1N1CCN(c2ncnc3c2c(-c2ccccc2)cn3-c2cccc(C)c2)CC1	-10%	-5%
COc1ccc(CCNC(=O)COC(=O)/C=C/c2cccs2)cc1OC	i	-11%
CCC(C)(C)c1nnc(NC(=O)c2ccc([N+](=O)[O-])cc2)s1	-28%	-22%
CN1CCCC(OC(=O)c2cc(Br)ccc2Cl)C1 (stereo not drawn)	-6%[1.46 µM]	-9%
CCOC(=O)c1ccc2ncc(C(=O)OCC)c(Nc3ccc(N4CCOCC4)cc3)c2c1	-26%	?
C[C@@H]1CN([C@@H](C)CO)C(=O)CCCn2nncc2CO[C@H]1CN(C)C(=O)Oc1cccc2ccccc12	-2%	-12%
Nc1c(-c2cccc(Cl)c2)cnn1-c1cccc([N+](=O)[O-])c1	-23%	-11%
COc1ccc(OC)c(NC(=O)c2c(NCc3ccc(N(C)C)cc3)sc3c2CCCC3)c1	-11%	-4%
CCOC(=O)c1ccc(NC(=O)CCc2nnc3ccc(N4CCN(C)CC4)nn23)cc1	-14%	-7%
CC(C)(C)NC(=O)COC(=O)c1ccc(F)cc1Cl	i	-12%
COc1ccc(-c2csc3nc(-c4ccccc4C)oc(=O)c23)cc1OC	-9%	-6%
O=C1CC(N2CCC(O)(c3ccc(Br)cc3)CC2)C(=O)N1c1ccc(Cl)cc1 (stereo not drawn)	-11%	-13%
CC(CCC(=O)O)C1CCC2C3CC(O)[C@@H]4CC(O)CC[C@]4(C)C3CC[C@@]12C (stereo partly drawn)	0%	0%
CC12CCC(=O)N1C(C(=O)Nc1ccc(Cl)c(Cl)c1)CS2 (stereo not drawn)	-12%	-2%
CCOC(=O)C1CCN(C(=O)CSCc2nc(-c3ccc(OCC)cc3)oc2C)CC1	·	-11%

Look-ups from above.
CCOC(=O)c1ccc2ncc(C(=O)OCC)c(Nc3ccc(N4CCOCC4)cc3)c2c1 in Vaccinia mCherry = -26%
COc1ccccc1N1CCN(c2ncnc3c2c(-c2ccccc2)cn3-c2cccc(C)c2)CC1 in Vaccinia mCherry = -10%

The list goes on:
SMILES	Vaccinia mCherry	VACV Venus inh
Cc1nn(-c2ccccc2)c(Cl)c1/C=C1/C(=N)N2N=C(C(C)C)SC2=NC1=O	22%	10%
CCc1cccc(C)c1NC(=O)CSc1ncn[nH]1	-3%	1%
CCOC(=O)CNC(=O)CSc1nnc(NC(=O)c2ccc(S(=O)(=O)N3CCOCC3)cc2)s1	i	-2%
COc1cc(OC)c(NC(=O)c2ccc(-n3cnc4cccnc43)cc2)cc1Cl	-2%	3%
COc1ccc(S(=O)(=O)NCc2ccccn2)cc1Br	-20%	-2%
CCc1ccc(NC(=O)Cn2c(=O)n(Cc3ccco3)c(=O)c3oc4ccccc4c32)cc1	-12%	-8%
CCc1ccc(C(=O)COC(=O)c2cc([N+](=O)[O-])ccc2NCCO)cc1	?	?
CCOC(=O)CSc1cc(-c2ccccc2)nc2ncnn12	i	6%
CCC(C)(C(=O)NC1CCCCC1)N(C(=O)C1CCC(=O)N1)c1ccc(C)cc1 (stereo not drawn)	-4%	-12%
CCOC(=O)c1c(C)[nH]c(CCC(=O)Nc2ccc(Cl)cc2C)c1C	-3%	-6%
CC1CC(C)CN(CCCNS(=O)(=O)c2cc(Br)cc3c2N(C(=O)C2CC2)CC3)C1 (stereo not drawn)	-9%	-13%
COc1cc(NC(=O)C(CCS(C)(=O)=O)N2Cc3ccccc3C2=O)cc(OC)c1OC (stereo not drawn)	-20%	-9%
Cc1cn2c(=O)c(S(=O)(=O)NCc3ccc(F)cc3)c(C)nc2s1	-11%	-9%
CC1CCCCN1CCNC(=O)c1cc2c(-c3ccccc3F)nn(C)c2s1 (stereo not drawn)	-7%	-14%
Cc1ccc(C)c(OCCC(=O)NNC(=O)c2ccccc2F)c1	i	-2%
CC(=O)[C@@]1(O)CC[C@H]2[C@@H]3C[C@H](C)C4=CC(=O)CC[C@]4(C)[C@H]3CC[C@@]21C	-24%	-18%
Cc1cccc(C(=O)N(Cc2nc3ccccc3c(=O)[nH]2)C2CCCC2)c1	-8%	-4%
COc1ccc2cc(C(C)C(=O)N3CCC(C)CC3)ccc2c1 (stereo not drawn)	2%	-20%
CCOC(=O)N1CCN(C(=O)C2CCCN(S(=O)(=O)c3cc(C)ccc3OC)C2)CC1 (stereo not drawn)	-12%	-11%
